CtBP-E1A inh = qHTS Assay for Inhibitors of the CtBP/E1A Interaction; 340,000 compounds, 0.49% hits; AlphaScreen GST-E1A/His-CtBP binding, 1536-well; active compounds read low; control for the full effect not named in the record; activity change, % (concentration not given with the values); CtBP / adenovirus E1A interaction (AlphaScreen); in the data active means activity change below about -65%; inconclusive means about -30% to -65%; inactive means above about -30%; also: % is scaled to controls: 0 for no effect and ±100 for the full control effect
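GST-E1A and His-tagged CtBP (125 nM each as 5X stock) were preincubated with pin-transferred compound for 2 h at 37 °C in the dark, then glutathione donor and nickel acceptor beads were added for 1 h before AlphaScreen reading.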
TRPV1 PAM = HTS Assay for Compounds that Act as Potentiators of the Vanilloid Receptor 1; 320,000 compounds, 0.02% hits; TRPV1-expressing cells, Fluo-8 calcium influx, capsaicin EC20 potentiation; host cell line not named in the record; control for the full effect not named in the record; AID 540277, 2011; potentiation, % at 8.33 µM; Transient receptor potential cation channel subfamily V member 1 (Homo sapiens), Q8NER1; active means potentiation above 80%; inconclusive means 30% to 80%; inactive means below 30%; also: 0% is about no effect
Target sequence (Q8NER1 whole entry, looked up): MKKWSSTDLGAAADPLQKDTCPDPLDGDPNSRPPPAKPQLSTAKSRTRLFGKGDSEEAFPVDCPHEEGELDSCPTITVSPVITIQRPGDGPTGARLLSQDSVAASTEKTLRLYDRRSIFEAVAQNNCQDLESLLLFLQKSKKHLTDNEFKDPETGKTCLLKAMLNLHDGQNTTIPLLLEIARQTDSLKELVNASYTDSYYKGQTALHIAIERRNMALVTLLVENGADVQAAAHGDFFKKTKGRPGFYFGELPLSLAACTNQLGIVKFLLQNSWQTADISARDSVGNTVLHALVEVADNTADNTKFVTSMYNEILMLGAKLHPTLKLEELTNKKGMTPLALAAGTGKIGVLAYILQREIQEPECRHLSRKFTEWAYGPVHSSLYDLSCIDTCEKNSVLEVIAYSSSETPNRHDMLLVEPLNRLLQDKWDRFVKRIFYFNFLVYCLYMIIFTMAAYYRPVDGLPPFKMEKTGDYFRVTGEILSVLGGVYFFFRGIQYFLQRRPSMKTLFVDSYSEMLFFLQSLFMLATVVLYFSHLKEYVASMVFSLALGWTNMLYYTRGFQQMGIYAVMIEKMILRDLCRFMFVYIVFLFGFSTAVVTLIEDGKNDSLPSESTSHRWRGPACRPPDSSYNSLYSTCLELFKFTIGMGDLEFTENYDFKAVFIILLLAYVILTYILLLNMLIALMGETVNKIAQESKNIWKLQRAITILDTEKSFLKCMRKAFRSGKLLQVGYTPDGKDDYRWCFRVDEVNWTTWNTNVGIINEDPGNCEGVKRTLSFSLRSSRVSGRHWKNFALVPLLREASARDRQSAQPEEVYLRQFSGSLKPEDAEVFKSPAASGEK
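TRPV1-expressing cells were cultured overnight at 35.5C and loaded with Fluo-8 calcium dye for 40 to 90 min at room temperature. After a 10 s baseline, compound was added and calcium influx was read kinetically for 3 min (ex 480/em 520 nm).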
Menin MLL FP FL = qHTS Assay for Inhibitors Targeting the Menin-MLL Interaction in MLL Related Leukemias: Competition With Fluorescein Labeled MLL-derived Peptide | Fluorescence polarization, fluorescein-MLL peptide displacement from menin | FP activity change, % at 61.4 µM | 290,000 tested, under 10 active; inconclusive = falling polarisation curve, or a change in total fluorescence; inactive = total fluorescence flat and polarisation flat or rising; no compound was filed as active; the % refers to the polarisation; negative = inhibition;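 also: % of control where 0% means no effect; inhibitors lower the polarisation; unlabelled MLL peptide was the positive control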
Sfp PPTase inh = qHTS Assay for Inhibitors of Bacillus subtilis Sfp phosphopantetheinyl transferase (PPTase); 310,000 compounds, 3.5% hits; Potency, µM, for the others: max response, negative = inhibition, usual class: inhibitors; Biochemical Sfp PPTase activity, qHTS; 4'-phosphopantetheinyl transferase ffp (Bacillus subtilis), Q9F4F7; active = well fitted inhibition curve with a large enough effect; inconclusive = small, poorly fitted or top-dose-only effect, or another doubt; inactive = no such curve, though single readings can be large or run the other way;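 also: the enzyme is Sfp with the accession as filed and its product quenches rhodamine fluorescence; potency is read from the fitted curve at half-maximal effect; 0% = enzyme reaction without inhibitor and -100% = no enzyme wells; top concentration of the series not given in the record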
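Fluorescence-quenching assay: 15 nM Sfp-PPTase preincubated 15 min at room temperature with compound, then 5 uM rhodamine-CoA and 12.5 uM BHQ-2-labelled YbbR peptide added. Fluorescence (ex 525/em 598 nm) read at start and after 30 min; difference gives rate.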
gsp agonist = qHTS for Agonist of gsp, the Etiologic Mutation Responsible for Fibrous Dysplasia/McCune-Albright Syndrome: qHTS | gsp mutant cells, cAMP HTRF, 30 min; control for the full effect not named in the record | Potency, µM (titrated, usually from 76.9 µM), for the others: at the top dose activation (cAMP increase), actives largely listed as activators | 340,000 compounds, 0.13% hits | AID 624287, 2012; active = well fitted activation curve with a large enough effect; inconclusive = small, poorly fitted or top-dose-only effect, or another doubt; inactive = no such curve, though single readings can be large or run the other way; cell line not stated here;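 also: phosphodiesterase inhibitor Ro 20-1724 added with compounds to block cAMP breakdown; potency is read from the fitted curve at half-maximal effect; nearly all actives have a fitted effect of over 60% in size; about a fifth of the inactives were tested at one dose only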
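Cells stably selected in G418 were plated at 2000/well, grown 16-24 hr, then given compounds in DMSO with the PDE inhibitor […] (300 uM solution added) for 30 min at 37C; cAMP was read by HTRF.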
ClpP mod = qHTS Assay for Activators of ClpP; ATP-dependent Clp protease proteolytic subunit (Bacillus subtilis (strain 168)), P80244; 340,000 compounds, 1.9% hits; AID 651965, 2013; purified B. subtilis ClpP, FRET peptide cleavage, 20 min; Potency, µM (highest dose often 57.5 µM), for the others: at the top dose activity change, negative = active; active = well fitted falling curve with a large enough effect; inconclusive = small, poorly fitted or top-dose-only effect; inactive = no such curve, though single readings can be large or run the other way; also: potency is read from the fitted curve at half-maximal effect; the source files actives as falling curves though it sought activators and does not explain the sign; nearly all actives have a fitted effect of over 65% in size; many hits overshoot -100%
Target sequence (P80244 whole entry, looked up): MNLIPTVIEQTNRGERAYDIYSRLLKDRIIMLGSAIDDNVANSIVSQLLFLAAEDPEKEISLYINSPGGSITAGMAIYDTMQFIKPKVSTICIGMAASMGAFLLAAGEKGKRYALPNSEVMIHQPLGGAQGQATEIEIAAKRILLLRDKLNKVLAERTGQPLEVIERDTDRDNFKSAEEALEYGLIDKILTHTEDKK
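Purified B. subtilis ClpP, 10 microg/mL final in Tris/HCl pH8 with KCl, BSA, glycerol and Tween-20, cleaved an Abz/nitrotyrosine-quenched decapeptide. Fluorescence (ex 320, em 430) was read at 0 and 20 min at room temperature. Delta was normalized to 5.8 microM ADEP and DMSO/no-enzyme controls.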
gsp antag = qHTS for Antagonists of gsp, the Etiologic Mutation Responsible for Fibrous Dysplasia/McCune-Albright Syndrome: qHTS; gsp-mutant cells, cAMP HTRF, 30 min; control for the full effect not named in the record; Potency, µM (series often up to 76.9 µM), without a hit: at the top dose activity change, negative = inhibition, most hits filed as inhibitors; 340,000 compounds, 0.4% hits; active = falling curve of any shape with a large fitted effect; inconclusive = falling curve, mostly with a smaller effect; inactive = flat or rising curve; cell line not stated here;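 also: intracellular cAMP measured with PDE inhibitor Ro 20-1724 present during compound exposure; potency is read from the fitted curve at half-maximal effect; % is scaled to controls: 0 for no effect and ±100 for the full control effect; nearly all actives have a fitted effect of over 65% in size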
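G418-selected cells were plated in DMEM/10% FBS for 16-24 h at 37C, then treated with compounds plus the PDE inhibitor […] (300 uM solution added) for 30 min at 37C. Intracellular cAMP was measured by HTRF after 30 min lysis at room temperature.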
The depositor's hits bear a star; ? = inconclusive; nt = no result given; & = joins results of further samples; [ ] = another dose, or the depositor's remark.

Every second line gives: TRPV1 PAM	gsp agonist	ClpP mod	Menin MLL FP FL	gsp antag	Sfp PPTase inh	CtBP-E1A inh
> COc1ccccc1OCCNC(=O)c1ccc(NC(=O)CC2SC(N3CCCC3)=NC2=O)cc1 (stereo not drawn)
  nt	-26%	-0.7%	nt	-3%	nt	-8
> C/C(=N\NC(=O)C1CC1)c1ccc(OC(F)F)cc1
  18	-6%[15.4 µM]	nt	-0.6	-2%	21%	-5
> Cc1ccc(CNC(=O)CS(=O)Cc2nc(-c3ccccc3C)oc2C)cc1 (stereo not drawn)
  -3	-42%[inhibitor]	-3.6%	1.5	-4%	12%	-1
> COc1ccc(CCNC(=O)COc2ccc3c(c2)OCO3)cc1
  19	-24%	-0.8%	nt	11%	nt	-10
> CC(=O)Nc1ccc(SCCN2CC[C@@H](C(C)(C)C)CCC2=O)cc1
  -5	-30%[inhibitor]	0.7%&3.3%	nt	-12%	nt	2
> Cc1ccsc1/C=N/Nc1nc2ccccc2s1
  -7	2%[15.4 µM]	-1.7%	?	-9%	?	-14
> C=CCNC(=S)N1CCOCC1
  5	13%[15.4 µM]	-3.4%	-0.6	7%	5%	-1
> Cc1cccc(N2CCN(S(=O)(=O)c3cccs3)CC2)c1C
  -2	-3%[15.4 µM]	nt	nt	-6%	3%	-13
> COc1ccc(-c2nc(CN3CCN(c4ncnc5ccccc45)CC3)c(C)o2)c(OC)c1
  11	-19%	-2.9%	-4.9	32µM*	10%	-13
> C=CCN=C1SCC(=O)N1S(=O)(=O)c1ccccc1
  -7	-8%	-1.6%	?	-3%	18%	1
> CC(C)(C)Nc1nc(Cl)nc(NCCN2CCOCC2)n1
  11	-10%	-1.3%	8.4	-1%	-2%	-12
> Cc1nnc(SCc2nc3sc4c(c3c(=O)[nH]2)CCCC4)n(N)c1=O
  -9	-5%[15.4 µM]	nt	16	-11%	-2%	-3
> COc1ccc(NC(=O)COC(=O)c2ccc(-n3cnnn3)cc2)cc1Cl
  3	-11%[15.4 µM]	-19%	nt	-1%	nt	-14
> C[N+]1(CCNC(=O)/C=N/O)CCCCC1
  -37	-21%	-2.0%	nt	14%	?	1
> COC(=O)CC(NC(=O)c1ccco1)c1ccc(C(C)C)cc1 (stereo not drawn)
  5	-37%[inhibitor]	1.8%	2.6	-4%	23%	-2
> COCCNC(=O)c1cc(-c2ccccn2)nc2ccc(S(=O)(=O)N3CCC(C)CC3)cc12
  ?	23%	-1.0%	nt	0%	20%	nt
> COc1ccccc1CN1C(=O)CCC1(C)C(=O)NC1CCCCCC1 (stereo not drawn)
  -7	0%	-0.5%	-0.2	3%	22%	1
> C/C(=C\C(=O)C(F)(F)F)Nc1cc(C)cc(C)c1
  4	?	-2.6%	1.6	8%	-18%	11
> O=C(O)CCn1c2c(c3ccccc31)CCCC2
  16	-39%[inhibitor]	25µM*	2.1	-19%	8%	2
> O=C(NCC1CCCO1)c1ccc(CNS(=O)(=O)c2ccc(F)c(Cl)c2)cc1 (stereo not drawn)
  -5	-15%[15.4 µM]	0.8%	4.1	6%	20%	5
> COc1ccc(C(=O)NNC(=O)Cc2nc3nc(C)cc(C)n3n2)cc1
  11	0%	-2.6%	nt	1%	-16%	nt
> CC1CCCCC12NC(=O)N(CC(=O)NCCc1ccccc1)C2=O (stereo not drawn)
  nt	-6%	nt	nt	10%	nt	4
> COc1ccc(Cl)cc1C(=O)NNC(=O)CCNS(=O)(=O)c1ccccc1
  nt	-23%	nt	nt	5%	nt	-1
> COc1ccc(NC(=O)CSc2ccccn2)cc1OC
  27	15%	-0.1%	-1.8	0%	0%	-4
> CN1/C(=C/c2cccc[n+]2C)Sc2ccccc21
  25	9%	1.3%	12	-14%	-16%	3
> Cc1nc2ccccc2nc1OCC(=O)Nc1ccc2ccccc2c1
  17	-15%	-18%	8.2	-18%	15%	1
> Cc1cc(C)nc(Sc2c(F)c(F)c(C(F)(F)F)c(F)c2F)n1
  -24	4%	-0.6%	0.7	5%	12%	-16
> O=C(COC(=O)c1ccccc1NC(=O)c1ccco1)Nc1ccc2c(c1)OC(F)(F)O2
  11	4%	67%	3.5	2%	1%	-6
> C=C(C)Cn1c(N2CCC(Cc3ccccc3)CC2)nc2c1c(=O)[nH]c(=O)n2C
  9	-4%	1.3%	0.6	-13%	-19%	-12
> CCOc1ccc(-n2c(-c3ccc(Cl)cc3)c[n+]3c2SCC3)cc1
  11	-16%	nt	-7.7	8%	12%	5
> COc1ccccc1CNC(=O)CC1C(=O)NCCN1C1Cc2ccccc2C1 (stereo not drawn)
  1	-33%[inhibitor]	-11%	nt	3%	5%	7
> C/C(Cc1ccccc1)=N\NC(=O)CNC(=O)c1ccc(Br)cc1
  21	0%	0.6%	5.4	7%	6%	3
> CC1CCN(S(=O)(=O)c2ccc(NC(=O)C3CC(=O)N(c4ccccc4)C3)cc2)CC1 (stereo not drawn)
  13	-9%[15.4 µM]	nt	2.9	13%	6%	-5
> NC(=S)n1[nH]c(-c2ccc([N+](=O)[O-])cc2)c(N=Nc2cccc([N+](=O)[O-])c2)c1=O
  -7	-39%[inhibitor]	nt	1.8	14µM*	-41%	0
> COC(=O)c1ccccc1OCCCCN1CC(C)OC(C)C1 (stereo not drawn)
  4	1%	-4.9%	2.1	5%	?	5
> COCCn1nnnc1C(c1cccs1)N1CCN(c2cccc(C(F)(F)F)c2)CC1 (stereo not drawn)
  3	-6%	-0.4%	2.4	-12%	2%	-1
> COc1cccc(N2CCN(CC(=O)c3c(C)[nH]c4ccccc34)CC2)c1
  7	-12%	-1.1%	3.3	-25%	8%	-19
> O=[N+]([O-])c1cc(S(=O)(=O)N2CCCC2)ccc1NN=C1CCCCC1
  1	?	-1.6%	6.8	-4%	10%	5
> CCOc1ccccc1C(C(=O)NC1CCCCC1)N(C(=O)c1csnn1)C1CC1 (stereo not drawn)
  -12	5%	nt	-1.8	-2%	18%	4
> COc1cc(-c2cc(-c3ccccc3)nc(SCC(=O)Nc3nccs3)c2C#N)cc(OC)c1OC
  25	8%	25µM*	4.9	-16%	-18%	-1
> O=S(=O)(NCCc1ccccc1)c1cccs1
  4	-2%	nt	2.4	12%	4%	1
> CCCCNC(=O)C(=O)c1ccccc1NC(C)=O
  3	-1%	-0.8%	5.0	-7%	12%	0
> COc1cc(C2C(C(=O)c3ccc(C)o3)=C(O)C(=O)N2CCN2CCOCC2)ccc1OCCC(C)C (stereo not drawn)
  2	38%[15.4 µM]	0.3%	-0.8	5%	-7%	2
> COc1ccc(-c2cc(C(F)(F)F)nc(SCC(=O)NCc3cnn(C)c3C)n2)cc1OC
  -14	4%	28µM*	-0.8	4%	7%	-16
> CCCCN(Cc1nc2ccccc2c(=O)[nH]1)C(=O)COc1ccc(F)cc1Cl
  4	4%	-5.2%	nt	3%	nt	9
> O=C(NCC1CCCCC1)c1ccc(Br)o1
  -22	?	0.9%	-2.6	5%	18%	2
> CCCOP(=O)(OCCC)C1(Nc2ccc(C)cc2)CCCCC1
  -5	15%	0.1%	-0.9	5%	12%	-7
> Cc1ccc(CN2CCSc3ccc(C(=O)NC4CCN(Cc5ccccc5)CC4)cc32)cc1
  -2	-22%	nt	-7.5	-4%	-2%	-8
> COC(=O)c1c(NC(=O)C2C3CCC(C3)C2C(=O)O)sc2c1CCCCC2 (stereo not drawn)
  -1	2%[15.4 µM]	nt	-2.9	nt	-20%	-9
> CCCCCCCC1CC(CSC(=N)N)OC1=O (stereo not drawn)
  -14	2%	-0.6%	-1.3	-9%	5%	9
> COC(=O)c1ccc(NC(=S)N2CCN(Cc3ccc(Cl)cc3)CC2)cc1
  11	-19%	-2.5%	2.9	?	1%	-15
> COc1ccc(N2CC(C(=O)Nc3ccc4c(c3)OCO4)CC2=O)cc1 (stereo not drawn)
  -15	-15%	-2.2%	0.7	-9%	3%	-6
> C[C@@H]1CN([C@H](C)CO)C(=O)c2cc(/C=C/c3ccccc3)cnc2O[C@H]1CN(C)C(=O)NC1CCCCC1
  nt	-23%	4.0%	nt	nt	nt	0
> COc1cccc(C(=O)Nc2nc3ccccc3s2)c1
  -10	-22%	-3.8%	0.4	-4%	0%	4
> OC(COc1ccccc1)CSc1ncn[nH]1 (stereo not drawn)
  -3	?	-0.9%	5.1	12%	6%	5
> Cc1ccc(C(=O)NCC(=O)OCC(=O)/C=C2\N(C)c3ccccc3C2(C)C)cc1C
  -5	1%	-22%	?	-23%	-5%	0
> CCCC1=NCCn2cccc21
  -2	?	-8.2%	-0.6	2%	12%	5
> Cc1ccc(NC(=O)c2ccccc2F)cc1S(=O)(=O)N1CCCCCC1
  -3	-10%[15.4 µM]	nt	0.2	-4%	12%	2
> Cc1cccc(NC(=O)c2sc(Cl)nc2C)c1C
  6	29%	0.5%	6.5	13%	10%	3
